Screening results (PubChem)
Rce1 inh – yeast Rce1p protease inhibitors, primary screen, biochemical, fluorescence, cell-free homogeneous | CAAX prenyl protease 2 (Saccharomyces cerevisiae (strain ATCC 204508 / S288c)), Q03530 | yeast membranes, quenched prenylated peptide cleavage fluorescence | calls only | hit rate 0.27% among 290,000 | AID 2563, 2010;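 active = fall in fluorescence gain of 50% or more versus controls, with final raw signal at or below 3038400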;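 also: plate controls were neutral control wells for no effect and wells lacking membranes for full effect; tested at 10 µM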
CSC inhib – cancer stem cell viability inhibitors, primary screen, luminescence; cancer stem cell-like cells viability; inhibition, % at 7.5 µM; AID 2717, 2010; hit rate 1.1% among 300,000;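 active = mean at 75% or more and at least half the replicates too; tested in HMLE shEcad cells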;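 also: 0% = median of negative and 100% = median of positive control wells; the first replicate is given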
eIF4H inh – human eIF4H binding inhibitors, primary screen, translation initiation inhibitor project, biochemical, uHTS, fluorescence polarization; eIF4H fluorescence polarization binding assay; inhibition, % at 35 µM; hit rate 0.94% among 290,000; AID 2012, 2009;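 active = 50% or more with normal probe brightness, or confirmed in later tests; about a fifth of its hits are not listed in these tables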;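 also: calls also rest on retests at 20 µM and on dose response follow-up; 0% = protein and probe with vehicle and 100% = probe without protein; strong numbers were not always called active; many hits fall short of the cut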
HIV Env fusion – inhibitors of HIV-1 Env-driven cell-cell fusion, primary screen, HeLa-JRFL effector, CEM21 target cells, luciferase; inhibition, % at 12.3 µM; hit rate 1.1% among 360,000;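 active = mean replicate inhibition score of at least 50 and every replicate individually at or above 50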;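 also: 0% = plate neutral controls and 100% = maraviroc near 300 nM; one replicate is shown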
PABP polyA inh – PABP poly(A) RNA binding inhibitors, primary screen, biochemical, fluorescence polarization, uHTS; inhibition, % at 35 µM; hit rate 1% among 290,000; Polyadenylate-binding protein 1 (Homo sapiens), P11940;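 active = 50% or more with normal probe brightness, or confirmed in later tests; about a fifth of its hits are not listed in these tables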;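 also: calls also rest on retests at 20 µM and on dose response follow-up; controls were probe without protein and protein plus probe with vehicle; some compounds called inactive have numbers as strong as hits; many hits fall short of the cut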
Target sequence (P11940 whole entry, looked up): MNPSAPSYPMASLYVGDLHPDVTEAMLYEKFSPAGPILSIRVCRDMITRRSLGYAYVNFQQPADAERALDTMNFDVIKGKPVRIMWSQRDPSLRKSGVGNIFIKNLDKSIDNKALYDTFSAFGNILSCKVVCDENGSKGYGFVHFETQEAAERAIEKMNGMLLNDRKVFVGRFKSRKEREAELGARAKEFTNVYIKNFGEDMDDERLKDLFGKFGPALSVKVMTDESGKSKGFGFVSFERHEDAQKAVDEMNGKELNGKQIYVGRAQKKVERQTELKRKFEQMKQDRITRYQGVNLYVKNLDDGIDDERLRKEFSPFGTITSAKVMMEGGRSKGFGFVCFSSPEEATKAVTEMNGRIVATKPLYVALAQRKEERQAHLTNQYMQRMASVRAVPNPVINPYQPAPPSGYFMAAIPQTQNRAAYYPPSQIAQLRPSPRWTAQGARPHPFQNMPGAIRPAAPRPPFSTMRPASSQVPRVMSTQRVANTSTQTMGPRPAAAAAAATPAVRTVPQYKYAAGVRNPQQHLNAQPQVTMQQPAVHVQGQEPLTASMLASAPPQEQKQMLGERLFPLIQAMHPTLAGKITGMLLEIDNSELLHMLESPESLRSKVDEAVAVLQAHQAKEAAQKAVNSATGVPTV
Yeast UUG start – modulators of yeast start codon fidelity, primary screen, whole organism, S. cerevisiae, single point, plate reader | S. cerevisiae UUG-firefly luciferase reporter, luminescence/redox ratio | activity score, % at 18.7 µM | hit rate 0.13% among 350,000 | AID 602363, 2012;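 active = replicate mean at a twofold rise or more, about +100% in these data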;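 also: firefly luciferase made from a UUG start codon reports start codon fidelity; reporter light over untreated wells divided by growth signal over untreated wells; some hits fall short of that in this replicate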
MT1-MMP act inh – blockers of MT1-MMP proenzyme processing, primary screen, HT1080 RFP-PRO-GFP cells, GFP/RFP fluorescence; AID 651647, 2012; Matrix metalloproteinase-14 (Homo sapiens), P50281; GFP/RFP ratio fluorescence, overnight; percent of plate control window, DMSO zero; GFP/RFP ratio change, % at 20 µM; hit rate 0.061% among 360,000;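 active = GFP/RFP ratio change of at least 30% with cell ATP level not reduced by more than half and red fluorescence within 50% of control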; also: strong numbers were not always called active
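Compound: 20 µM single dose, 1% DMSO / System: HT1080 RFP-PRO-GFP cells / Controls: DMSO and RFP-L50D-GFP cell wells / Read-out basis: GFP/RFP fluorescence ratio / Schedule: overnight compound exposure at 37 °C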
eIF4H inh retest – further read-out of eIF4H inh, marked with its call; inhibition, %; compound at 20 µM; confirmation average;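 mean of two retest wells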
PABP polyA inh retest – further read-out of PABP polyA inh, marked with its call; inhibition, %; compound at 20 µM; confirmation repeats;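 mean of two retest wells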
MT1-MMP act inh RFP – further read-out of MT1-MMP act inh, marked with its call; RFP signal change, %; measured here: RFP expression control read;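 0 = vehicle wells; hits needed this value within 50% of zero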
* marks the source's active call; other numbers are inactive results; i = inactive; · = not tested or not shown. This is a subset; count on the stated rates, not on these rows.

SMILES	Rce1 inh	CSC inhib	eIF4H inh	HIV Env fusion	PABP polyA inh	Yeast UUG start	MT1-MMP act inh	MT1-MMP act inh RFP	others
CCCNC(=O)c1ccc2nc(-c3ccccc3)c(-c3ccccc3)nc2c1	i	57	-9	·	4	-5	0	-7
CSc1cccc(NC(=O)C2CCCN2S(=O)(=O)c2ccc(Br)s2)c1 (configuration not stated)	i	-3	0	60*	5	-4	4	1
CN(C)c1ccc(CC(=O)N2CCCC(c3cc(C(=O)Nc4ccc(F)c(Cl)c4)no3)C2)cc1 (configuration not stated)	·	·	·	23	·	1	-8	-25
N#Cc1nc(-c2ccc(OCc3ccc(Cl)cc3)cc2)oc1N1CCOCC1	i	8	0	·	0	-20	-2	-2
O=c1cc(-c2ccccc2Cl)oc2c(NS(=O)(=O)c3ccccc3C(F)(F)F)ccc(O)c12	i	31	-10	6	-3	24	0	-3
CC1CN(c2cc(=O)n(-c3cccc(Br)c3)c(=O)[nH]2)CC(C)O1 (configuration not stated)	i	1	-2	12	0	-9	1	-1
Cc1cc(NC(=O)CSc2nnc(C)n2-c2ccccc2)no1	i	-6	4	3	0	·	4	0
COc1ccc(Cl)cc1NC(=O)C(C)N(C)Cc1ccc(C(F)(F)F)cc1 (configuration not stated)	i	19	-8	9	26	·	-2	-14
COc1ccccc1NC(=O)c1ccc2c(c1)C(=O)N(Cc1ccco1)C2=O	i	3	-1	·	-10	-12	-1	5
Cc1nn(CC(=O)NCCc2cccs2)c(=O)c2nn(-c3ccccc3)c(C)c12	i	7	8	-5	3	-8	·	·
CCCCSc1nc(O)cc(=O)n1CC	i	2	-9	2	-12	-14	-8	-1
CN(C)C(=O)CCc1ccc2c3c([nH]c2c1)[C@]1(C)[C@@H](C(=O)N2CCCCC2)C[C@H](CC(=O)NCCN2CCOCC2)C(=O)N1CC3	·	·	·	-40	·	5	2	7
N#Cc1c(NC(=O)C(=O)NCCCN2CCOCC2)sc2c1CCC2	i	13	-3	2	-9	·	-3	4
COc1ccccc1OCCOC(=O)Nc1ccccc1	i	-6	-5	6	-6	·	2	4
O=c1[nH]cnc2cc(Cl)ccc12	·	·	9	·	4	22	-1	1
COc1ccc2cc(C(=O)NCCO)sc(=O)c2c1OC	i	-3	-13	-114	-10	-13	1	3
Cc1ccc(S(=O)(=O)N2CC=C(C(=O)NCCC(C)C)CC2)cc1	i	-5	-2	-8	9	5	-2	3
COc1ccc2c(c1)C(C)CC(C)(C)N2C(=O)NC1CCCCC1 (configuration not stated)	·	47	-4	-31	113	·	-6	0	eIF4H inh retest=-11;PABP polyA inh retest=13
COCCOC(=O)c1cc(C(=O)c2cc(F)ccc2O)coc1=N	i	-9	6	-71	-1	-27	-18	-3
CCN(CC)C(=O)C1=C(C)Nc2ncnn2C1c1cccnc1 (configuration not stated)	i	-8	0	0	-8	-21	-4	2
COc1cc(NS(=O)(=O)c2ccc(N/C=C(\C=O)c3nc4ccccc4o3)cc2)nc(OC)n1	i	-7	-9	4	2	1	-10	3
COc1ccccc1-c1nc(SCC(=O)O)n[nH]1	i	-7	0	·	-6	-17	-1	2
O=C1C(Cl)=C(NC(=O)c2ccccc2)C(=O)C(Cl)=C1NC(=O)c1ccccc1	i	·	0	-14	25	-23	-4	-1
COc1ccc(CCn2c(=S)[nH]c3ccc(N4CCOCC4)cc3c2=O)cc1OC	i	-12	3	13	-3	-15	0	-7
Cc1cnc(NC(=O)C(C)N2C(=O)C3CC=CCC3C2=O)s1 (configuration not stated)	i	-4	-7	-85	0	-23	2	8
O=[N+]([O-])c1ccc(SCCO)nc1SCCO	i	2	-4	-5	2	-14	-7	4
C=CCOc1ccc(C2C(C#N)=C(N)N(Nc3ccccc3)C3=C2C(=O)CC(C)(C)C3)cc1OC (configuration not stated)	i	23	-1	·	-4	-8	-5	-7
NS(=O)(=O)c1ccc(NCc2cc(Cl)ccc2OCc2ccc(F)cc2)cc1	i	5	-3	·	-4	4	-1	-15
CCCn1c(C)nnc1SCC(=O)NC1CCCCC1	i	-1	-11	8	0	-14	0	3
Cc1cc(/C=C2/C(=N)N3C(=NC2=O)SN=C3S(C)(=O)=O)c(C)n1-c1ccccc1F	i	-6	17	-40	4	·	-1	0
O=C(O)CN1C(=O)/C(=C\c2cccc(OCc3ccccc3)c2)SC1=S	i	10	6	5	4	-16	3	5
COc1ccc(N(CC(=O)NCc2ccc(F)cc2)C(=O)c2snc(C(N)=O)c2N)cc1OC	·	-19	-4	9	1	-15	0	1
Cc1nnc(SCc2cc(=O)[nH]c(/N=C(\N)Nc3ccccc3Sc3ccccc3)n2)s1	i	·	-8	13	-2	·	4	-2
Cc1ccc(C)c(N2CCN(C(=O)CCS(=O)(=O)c3ccc4c(c3)NC(=O)C(C)S4)CC2)c1 (configuration not stated)	i	-8	-18	22	8	-15	-4	-27
CCN(CC(=O)Nc1ccc2c(c1)OCCO2)CC(=O)Nc1ccc(C)c(S(=O)(=O)N(C)C)c1	·	-15	·	4	·	-16	-3	-3
CN(C(=O)COC(=O)c1nn(C)c(=O)c2ccccc12)c1c(N)n(Cc2ccccc2)c(=O)[nH]c1=O	i	-11	·	-13	·	0	2	1
N#Cc1ccccc1NC(=O)COC(=O)/C=C/c1ccc(S(=O)(=O)N2CCOCC2)cc1	·	1	·	·	·	11	0	1
Cn1cc(C(=O)c2ccc(Cl)cc2)cc1-c1nc2ccccc2n1C	i	6	4	·	-9	-10	-6	-24
CCNc1nc(CSc2ccccc2)nc2sc(C)c(C)c12	i	43	4	-11	-11	-12	-5	-7
Cc1ccc(N2C(=O)CC(N3CCN(c4ccccn4)CC3)C2=O)cc1 (configuration not stated)	·	-10	0	6	8	·	0	5

Five compounds out of the list, ordered by formula weight, lowest first.
SMILES	Rce1 inh	CSC inhib	eIF4H inh	HIV Env fusion	PABP polyA inh	Yeast UUG start	MT1-MMP act inh	MT1-MMP act inh RFP	others
Cc1nn(CC(=O)NCCc2cccs2)c(=O)c2nn(-c3ccccc3)c(C)c12	i	7	8	-5	3	-8	·	·
Cc1cc(/C=C2/C(=N)N3C(=NC2=O)SN=C3S(C)(=O)=O)c(C)n1-c1ccccc1F	i	-6	17	-40	4	·	-1	0
Cc1nnc(SCc2cc(=O)[nH]c(/N=C(\N)Nc3ccccc3Sc3ccccc3)n2)s1	i	·	-8	13	-2	·	4	-2
COc1ccc(N(CC(=O)NCc2ccc(F)cc2)C(=O)c2snc(C(N)=O)c2N)cc1OC	·	-19	-4	9	1	-15	0	1
CN(C)C(=O)CCc1ccc2c3c([nH]c2c1)[C@]1(C)[C@@H](C(=O)N2CCCCC2)C[C@H](CC(=O)NCCN2CCOCC2)C(=O)N1CC3	·	·	·	-40	·	5	2	7

More structures.
SMILES	Rce1 inh	CSC inhib	eIF4H inh	HIV Env fusion	PABP polyA inh	Yeast UUG start	MT1-MMP act inh	MT1-MMP act inh RFP	others
O=C(Nn1cnnc1)c1cc(-c2cccc(Br)c2)nc2ccccc12	i	3	-10	-15	3	-6	7	6
CC1CCN(S(=O)(=O)c2ccc(NC(=O)C3CCN(C(=O)c4ccco4)CC3)cc2)CC1	i	2	6	-14	9	16	-3	-16
COc1ccc(C(OC(=O)c2ccco2)C(=O)NCc2ccc(C)cc2)cc1 (configuration not stated)	i	·	-8	-28	-4	-12	7	5
O=C(CCC(=O)c1ccc(Br)cc1)Nc1cccc(C(F)(F)F)c1	i	·	-16	·	-11	5	0	4
Cn1c(=O)c2c(nc(Cl)n2Cc2ccc(Cl)c(Cl)c2)n(C)c1=O	i	0	1	·	-2	·	4	-18
COc1cccc2[nH]c3c(Cl)ncnc3c12	i	4	9	16	0	·	5	0
COC(=O)c1ccc(C23CC4(C2)[C@H](CN(Cc2ccc(-c5ccccc5)cc2)[C@@H]4c2ccccc2)C3c2ccccc2)cc1 (some centres not stated)	i	12	-3	-12	-10	-14	-4	6
CCCCN(C(=O)C1CCC1)c1c(N)n(CCC)c(=O)[nH]c1=O	i	-3	·	-7	·	-6	2	1
CNC(=O)COc1coc(CN2CCN(C(=O)c3ccco3)CC2)cc1=O	i	-5	·	5	·	-16	3	3
CC(C)N(Cc1ccccc1)C(=O)CN1C(=O)NC(Cc2ccccc2)(c2ccccc2)C1=O (configuration not stated)	i	-10	-3	15	-4	8	-9	-5

In the list so far, 4 have a cyano group.
SMILES	Rce1 inh	CSC inhib	eIF4H inh	HIV Env fusion	PABP polyA inh	Yeast UUG start	MT1-MMP act inh	MT1-MMP act inh RFP	others
N#Cc1nc(-c2ccc(OCc3ccc(Cl)cc3)cc2)oc1N1CCOCC1	i	8	0	·	0	-20	-2	-2
N#Cc1c(NC(=O)C(=O)NCCCN2CCOCC2)sc2c1CCC2	i	13	-3	2	-9	·	-3	4
C=CCOc1ccc(C2C(C#N)=C(N)N(Nc3ccccc3)C3=C2C(=O)CC(C)(C)C3)cc1OC (configuration not stated)	i	23	-1	·	-4	-8	-5	-7
N#Cc1ccccc1NC(=O)COC(=O)/C=C/c1ccc(S(=O)(=O)N2CCOCC2)cc1	·	1	·	·	·	11	0	1

Carrying on:
SMILES	Rce1 inh	CSC inhib	eIF4H inh	HIV Env fusion	PABP polyA inh	Yeast UUG start	MT1-MMP act inh	MT1-MMP act inh RFP	others
CC1(C(=O)O)CCCN(C(=O)C2(c3ccc(Cl)cc3)CCCC2)C1 (configuration not stated)	·	·	·	-54	·	-21	-3	4
N#Cc1nc(Nc2cc(F)cc(F)c2)c2ncn(CC(F)F)c2n1	·	28	·	-37	·	-10	5	-13
COc1ccc2oc(C(=O)N3CCN(c4ncccn4)CC3)c(C)c2c1	i	-5	-12	-4	-17	10	-4	0
Nc1ccccc1Sc1ccccc1[N+](=O)[O-]	i	14	-4	-4	6	·	1	1
COc1ccc(S(=O)(=O)N(CCCN2CCOCC2)Cc2cccc(OC)c2OC)cc1	i	-8	-1	·	-8	·	0	1
CN1C(=O)C(O)(C2COC(C)(C)CC2=O)c2cc(Br)ccc21 (configuration not stated)	i	34	-1	·	2	-11	-2	3
COC(=O)[C@]1(Cc2ccccc2)N[C@H](CN(C)C(=O)c2ccc(C)cc2)[C@@H]2C(=O)N(C)C(=O)[C@@H]21	·	·	·	-59	·	2	1	6
CCOC(=O)C1=CC[C@H]2c3c(c4ccccc4n3C)C(=O)C1N2C(=O)OC(C)(C)C	·	9	·	20	·	7	1	2
Fc1ccc2nc(Nc3nc4cc5c(cc4s3)OCO5)sc2c1	i	12	14	-71	-14	·	-1	-1
O=C1CCCCC1Sc1nnc(Cc2cccs2)n1CCc1ccccc1 (configuration not stated)	·	13	3	-36	2	-15	-2	-6
O=C(/C=C/c1c(Cl)cccc1Cl)N1CCN(c2ncccn2)CC1	i	-8	2	·	7	-6	-4	-2
Cc1cc(C)nc(NC2=NCC(=O)N2c2ccc(F)c(Cl)c2)n1	i	·	5	·	0	-22	2	4
c1ccc(C2CSc3ccccc3N2)cc1 (configuration not stated)	i	9	-5	-23	5	-30	-1	3
